miR-21 FLuc: miR-21 reporter, rising signal; HeLa miR-21 FLuc reporter, luciferase, 48 h; Potency, µM (highest dose often 38.3 µM), inactives show at the highest dose reporter change, positive = more light; 340,000 tested, under 10 active; active = well fitted rising curve with a large enough effect; inconclusive = small, poorly fitted or top-dose-only effect; inactive = no such curve, though single readings can be large or run the other way;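 further: % of control where 0% means no effect; miR-21 action dims this reporter so a rising signal means less miR-21 action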
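HeLa miR-21-FLuc reporter line, endogenous miR-21; 2000 cells/well in DMEM/10% FBS; compound titration up to ~40uM final, 48 h, 37 degree Celsius; luciferase detection reagent, 15 min lysis, CCD luminescence.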
The depositor's hits bear a star; u = inconclusive; [ ] = dose if it differs, or a comment. This is a subset; count on the stated rates, not on these rows.

smiles	miR-21 FLuc
COC(=O)CSc1nnc2n(-c3ccccc3)c(=O)c3c4c(sc3n12)COC(C(C)C)C4 (stereo not drawn)	-6%
CCN(CC)c1ccc(NC(=O)CSc2nc(-c3cccs3)cc(C(F)(F)F)n2)cc1	1%
CCc1cc(C(=O)NC(C)c2ccccc2)no1 (stereo not drawn)	-5%
Cc1cc2nc(-c3cccc(NC(=O)COc4ccc(C(C)C)cc4)c3)oc2cc1C	-61%
COc1cccc(C2C(C(=O)Nc3ccc(Cl)cc3)=C(C)Nc3nc4ccccc4n32)c1 (stereo not drawn)	1%
O=C1CC(c2nnc(Cc3cccc(Cl)c3)o2)CN1c1ccccc1 (stereo not drawn)	-6%
COc1cccc(-n2c(=O)c3sc4ccccc4c3n(CC(=O)Nc3ccc(F)cc3F)c2=O)c1	1%
COc1ccc(-n2nc(C(=O)N3CCN(c4cccc(C)c4C)CC3)c3c4ccccc4n(C)c3c2=O)cc1Cl	0%
CCOC(=O)c1c(NC(=O)c2ccccc2C)sc2c1CCCC2	-5%
CC(=O)N1CCc2cc(S(=O)(=O)NC(CC(C)C)C(=O)NCc3ccccc3)ccc21 (stereo not drawn)	-8%
COc1ccc(-n2c(=O)c3ccc(C(=O)NCc4ccc(C)cc4)cc3n(CC(=O)Nc3ccc(F)cc3)c2=O)cc1	-19%
Cc1ccccc1C(=O)NCc1nc(-c2ccc(Cl)cc2)no1	8%
Cc1ccc(-c2noc(-c3cccnc3N(C)Cc3ccc(Cl)cc3)n2)cc1	0%
Cc1ccc(OCCOCCn2c(-c3ccc(Cl)cc3)nc3ccccc3c2=O)cc1	1%
COc1ccc2c(c1)c1c(c(=O)n(Cc3ccccc3)c(=O)n1CC(=O)NCc1ccccc1Cl)n2C	-1%
O=C1CSC(=S)N1c1ccc(F)cc1	-3%
COc1ccccc1NC(=O)C1CCN(S(=O)(=O)c2ccc3[nH]c4c(c3c2)CCCCC4)CC1	9%
Cc1ccccc1-c1noc(-c2ccc(N3CCN(c4ccccc4)CC3)c([N+](=O)[O-])c2)n1	-36%
CCc1ccc(C(=O)N2CCC(c3nc(-c4ccc(S(=O)(=O)N5CCCC5)cc4)no3)CC2)cc1	20%
COc1ccc(N2CCN(CC(O)COc3ccccc3C(C)(C)C)CC2)cc1 (stereo not drawn)	18%
CCc1ccc(NC(=O)Cn2c(=O)n(CCc3ccccc3)c(=O)c3sc4ccccc4c32)cc1	-14%
COc1cccc(CNC(=O)Cn2c(=O)n3nc(-c4cccc(C)c4)nc3c3ccccc32)c1	-25%
Cc1cccc(CNC(=O)CN2CC(C)Sc3ccccc32)c1 (stereo not drawn)	-33%
Cc1ccc(C(=O)N2CCC(C(N)=O)CC2)cc1NC(=O)c1nsc2ccccc12	-14%
CCc1ccc(NCc2cc3cc(OC)c(OC)cc3n(CC(=O)Nc3ccc(F)cc3)c2=O)cc1	8%
Cc1cccc(-c2nc(SCC(=O)N3CCc4ccccc43)c3c(=O)n(C)c(=O)n(C)c3n2)c1	1%
Cc1ccccc1CNC(=O)Cn1nc(C)c2nn(-c3ccc(Cl)cc3)c(C)c2c1=O	4%
CCN(Cc1ccccc1)S(=O)(=O)c1cc(C(=O)Nc2cc(Cl)cc(Cl)c2)ccc1F	u
Cc1cc(CN2CCN(c3ccccc3F)CC2)cs1	-2%
CN(C)c1ccc(CNC(=O)c2ccc3c(c2)N(C)C(=O)C2CCCCN32)cc1 (stereo not drawn)	2%

4 compounds from above, ordered by the value under miR-21 FLuc, falling.
compound	miR-21 FLuc
CCc1ccc(C(=O)N2CCC(c3nc(-c4ccc(S(=O)(=O)N5CCCC5)cc4)no3)CC2)cc1	20%
Cc1cccc(-c2nc(SCC(=O)N3CCc4ccccc43)c3c(=O)n(C)c(=O)n(C)c3n2)c1	1%
Cc1ccc(C(=O)N2CCC(C(N)=O)CC2)cc1NC(=O)c1nsc2ccccc12	-14%
COc1cccc(CNC(=O)Cn2c(=O)n3nc(-c4cccc(C)c4)nc3c3ccccc32)c1	-25%

(further entries)
smiles	miR-21 FLuc
COc1ccc(S(=O)(=O)c2c(Nc3ccccc3F)sc(C(=O)c3cccc(OC)c3)c2N)cc1	23%
O=C(CN1C(=O)COc2ccc(S(=O)(=O)Nc3ccccc3)cc21)Nc1cccc(Cl)c1	2%
Cc1ccc(-n2ncc(C(=O)NCc3ccco3)c2C2CCN(C(=O)OC(C)(C)C)CC2)cc1	7%
Cc1c(C(=O)OC2CCC(C)CC2)[nH]c2c1C(=O)CC(c1ccc(N(C)C)cc1)C2 (stereo not drawn)	-4%
CN(C)CCCN(C(=O)c1cccs1)c1nc2ccc(F)cc2s1	-26%
CCOC(=O)C1=C(CN(CC)Cc2ccccc2)NC(=O)NC1c1ccc(OC)cc1 (stereo not drawn)	-5%
COc1ccccc1NC(=O)c1ccc(CN2C(=O)C(C)=C(c3ccc(C)c(C)c3)S2(=O)=O)cc1	0%
COc1ccc(Nc2ncnc3c2nc2n3CCCC2)cc1Cl	-31%
CCn1cc(C(=O)N(C)c2ccc(C(C)C)cc2)c2cc(OC)c(OC)cc2c1=O	6%
COc1cc(NC(=O)CSc2ccc(-c3sc(-c4ccccc4)nc3C)nn2)cc(OC)c1	-5%
O=C(NCc1ccccc1Cl)C1CCCN(c2ncnc3onc(-c4ccc(F)cc4)c23)C1 (stereo not drawn)	-10%
O=C(NCCc1ccccc1)c1cc(Sc2cccc(Cl)c2)nc2ccccc12	-7%
CCC(=O)N1CCc2cc(Br)cc(S(=O)(=O)N3CCCC(C(=O)Nc4ccc(C)c(F)c4)C3)c21 (stereo not drawn)	19%
COC(=O)c1ccc2c(c1)N(CC(=O)Nc1ccc(OC)c(Cl)c1)C(=O)c1ccccc1S2	-8%
COc1ccc(C2C=C(c3ccccc3)Nc3nc(NC(=O)/C=C/c4ccc(F)cc4)nn32)cc1 (stereo not drawn)	-14%
Fc1ccc(N2CCN(c3ncnc4c3nc3n4CCCCC3)CC2)cc1	2%
CC1CCCCN1CCCNC(=O)c1cc(Sc2ccc(Cl)cc2)nc2ccccc12 (stereo not drawn)	10%
COc1ccccc1N1CCN(CCC(=O)Nc2cccc(F)c2)CC1	-4%
O=C(CSc1nc2c([nH]c3ccccc32)c(=O)n1-c1ccc(Cl)cc1)NCc1ccccc1	-8%
COc1ccc(NC(=O)C2CCC(CNS(=O)(=O)c3ccc(Br)s3)CC2)c(OC)c1 (stereo not drawn)	16%
CCOCN(C(=O)Cn1cnc2cc(C)c(C)cc21)c1c(C)cccc1CC	27%
CCCCOc1cccc(C(=O)N2CCN(CCc3ccncc3)CC2)c1	-5%
O=C(CN1C(=O)CCSc2ccc(S(=O)(=O)N3CCCC3)cc21)Nc1cccc(F)c1	-3%
COCCNC(=O)c1ccc2c(c1)N(Cc1ccc(C(F)(F)F)cc1)C(=O)c1ccccc1S2	7%
Cc1ccc(Cn2c(CO)cnc2SCc2cccc(F)c2)cc1	0%
COc1cc2c(cc1OC)C1O[C@](CCCCN3C(=O)c4ccccc4C3=O)(C2)OC2=C1C(=O)CC(C)(C)C2	8%[7.66 µM]
Cc1ccc(F)c(NC(=O)Nc2ccc3snnc3c2)c1	-23%
COc1ccc2c(c1)c1c(c(=O)n(-c3ccc(OC)c(OC)c3)c(=O)n1CC(=O)N1CCCC1)n2C	-1%
CCc1ccc(-c2nc(CN3CCCC(C(=O)NCc4ccc(C)cc4)C3)c(C)o2)cc1 (stereo not drawn)	-8%
COc1ccc(CCNc2nc(SCc3ccccc3F)nc3ccccc23)cc1OC	23%
COc1cccc(-c2nn3c(=O)cc(CN4CCN(C(=O)/C=C/c5ccccc5)CC4)nc3s2)c1	2%
COc1ccc(CC(=O)Nc2ccc(-c3nc4ccccc4s3)cc2Cl)cc1OC	-6%
Cc1ccc(N2C(=O)C(CC(=O)Nc3cccc(F)c3)N(CCc3ccccc3F)C2=O)cc1 (stereo not drawn)	-9%
Cc1cccc(C)c1Nc1c(-c2ccsc2)nc2ccc(Cl)cn12	2%
O=c1cc(CN2CCN(S(=O)(=O)c3ccccc3)CC2)nc2sc(-c3ccccc3Cl)nn12	0%
Cc1cccc(NC(=O)CSc2cn(CC(=O)N3CCOCC3)c3ccccc23)c1C	8%
Cc1cc(C)c2c(=O)cc(C(=O)NCCc3ccc(S(N)(=O)=O)cc3)oc2c1	-28%
COC(=O)c1ccccc1NC(=O)C1=C(C)C(=O)OC12CCC(C)CC2 (stereo not drawn)	3%
Cc1ccc(CSc2oc(-c3ccco3)nc2S(=O)(=O)c2ccc(Br)cc2)cc1	0%
Cc1ccc(Cl)cc1N1CCN(S(=O)(=O)c2ccc3c(c2)C(C(C)C)C(=O)N3)CC1 (stereo not drawn)	15%
Cc1ccc(Nc2nnc(-c3ccc(C)c(S(=O)(=O)N4CCOCC4)c3)c3ccccc23)cc1	-9%
COc1cccc(-c2nnc(SCC(=O)N(C)C3CCCCC3)o2)c1	-10%
CCCNC(=O)CSc1c2c(nc3ccc(Cl)cc13)CCCC2	10%
COc1ccc(C2NC(=O)N(C)C3=C2C(=O)N(c2cccc(Cl)c2)C3)cc1 (stereo not drawn)	-6%
Cc1cccc(NC(=O)CSc2nc3ccccc3c3nc(CCn4cncc4C)nn23)c1	18%
CCCCOC(=O)c1ccc(NC(=O)CSc2nc3c(c(=O)[nH]2)CCCC3)cc1	6%
CCOC(=O)N1CCc2c(sc3c2c(=O)n(Cc2ccccc2)c(=O)n3CC(=O)Nc2cccc(C)c2)C1	6%
COc1ccc(S(=O)(=O)c2cc(NS(=O)(=O)c3ccc(Cl)cc3)c(C)c(C)c2O)cc1	0%
CCN(CC)c1ccc(-c2nc(-c3ccncc3)no2)cc1[N+](=O)[O-]	2%
Cc1ccc2c(c1)c1c(c(=O)n(-c3ccccc3C)c(=O)n1CC(=O)NCCC1=CCCCC1)n2C	2%
Cc1ccc(CN2C(=O)N(c3ccccc3)C(=O)C2CC(=O)Nc2ccccc2)cc1 (stereo not drawn)	11%
Cc1ccc(OCCn2c(-c3ccc(Cl)cc3)nc3ccccc3c2=O)c(C)c1	1%
COc1ccc(-c2nnc(SCC(=O)NCCc3ccccc3)nc2-c2ccc(OC)cc2)cc1	-7%
CCc1ccc(S(=O)(=O)c2cnc3ccc(OC)cc3c2N2CCCC(C)C2)cc1 (stereo not drawn)	21%
CCn1cc(C(=O)N2CCN(c3cc(Cl)ccc3C)CC2)c(=O)c2cc(S(=O)(=O)N3CCCCC3)ccc21	u
CCCN(C(=O)c1cc2c(=O)oc3ccc(C)cc3c2s1)c1ccc(OCC)cc1	0%
COc1ccc(N2CC(NC(=O)/C=C\c3ccc(OC)c(OC)c3)CC2=O)cc1 (stereo not drawn)	-2%
Cc1cc(C)cc(OC(C)C(=O)Nc2c(C(=O)c3ccccc3)oc3ccccc23)c1 (stereo not drawn)	0%
N#Cc1ccccc1Cn1nnc2c(=O)[nH]c(C3CCCN(S(=O)(=O)c4ccc(F)cc4)C3)nc21 (stereo not drawn)	4%
CCCCNC(=O)c1cccc(NC(=O)c2nsc3ccccc23)c1	-68%

Going on with the list.
smiles	miR-21 FLuc
COc1cccc(NC(=O)Cn2c(=O)n(-c3ccc(C)cc3)c(=O)c3ccc(C(=O)NCc4ccco4)cc32)c1	-8%
O=C1CN(C(=O)c2ccccc2C(F)(F)F)C(c2ccccc2)c2cc(F)ccc2N1 (stereo not drawn)	-1%
CN1C(=O)Cc2cc(S(=O)(=O)NCc3ccc(Cl)cc3)ccc21	3%
CN(C)CCN(Cc1ccco1)S(=O)(=O)c1cc2c(cc1Cl)NC(=O)CO2	-7%
COc1cc(NC(=O)C2CCN(S(=O)(=O)c3c(C)noc3/C=C/c3ccccc3F)CC2)cc(OC)c1OC	18%
COc1ccc(-c2nc(CSCC(=O)NCc3ccccc3Cl)c(C)o2)cc1OC	11%
Cc1ccc(C)c(NC(=O)Cn2c(=O)n(CCC(C)C)c(=O)c3cccnc32)c1	6%
CC(C)CN(CCCNC(=O)Cn1ncc2c3ccccc3n(C)c2c1=O)CC(C)C	-3%
CCOc1ccc(C(=O)c2cn(CC(=O)Nc3cc(OC)cc(OC)c3)c3ccc(F)cc3c2=O)cc1	-18%
CCc1cccc(C)c1NC(=O)C(CC)Sc1nncn2c1cc1occc12 (stereo not drawn)	3%
O=C1c2[nH]nc(-c3ccc(F)cc3)c2C(c2ccccc2F)N1c1ccccc1 (stereo not drawn)	u
CCC(C)NC(=O)c1[nH]c2cc(OC)ccc2c1Sc1ccc(C)cc1 (stereo not drawn)	5%
CC(=O)Nc1nonc1-c1nnc(SCc2ccccc2)n1C	-12%
CC(CCc1ccccc1)NC(=O)CSc1n[nH]c(-c2ccc(F)cc2)n1 (stereo not drawn)	23%

Quoted from the listing:
`CCC(C)NC(=O)c1[nH]c2cc(OC)ccc2c1Sc1ccc(C)cc1` (stereo not drawn) | miR-21 FLuc: 5%
`CC(CCc1ccccc1)NC(=O)CSc1n[nH]c(-c2ccc(F)cc2)n1` (stereo not drawn) | miR-21 FLuc: 23%
`Cc1ccc(C)c(NC(=O)Cn2c(=O)n(CCC(C)C)c(=O)c3cccnc32)c1` | miR-21 FLuc: 6%
`O=C1CN(C(=O)c2ccccc2C(F)(F)F)C(c2ccccc2)c2cc(F)ccc2N1` (stereo not drawn) | miR-21 FLuc: -1%
`COc1cccc(NC(=O)Cn2c(=O)n(-c3ccc(C)cc3)c(=O)c3ccc(C(=O)NCc4ccco4)cc32)c1` | miR-21 FLuc: -8%

A different layout for part of the listing above.
COC(=O)c1ccc2c(c1)N(CC(=O)Nc1ccc(OC)c(Cl)c1)C(=O)c1ccccc1S2
- miR-21 FLuc = -8%

O=C(NCc1ccccc1Cl)C1CCCN(c2ncnc3onc(-c4ccc(F)cc4)c23)C1 (stereo not drawn)
- miR-21 FLuc = -10%

Screening results (PubChem)
